CSC inhib: blocks cancer stem cells; cancer stem cell-like cells viability, luminescence; inhibition, % at 7.5 µM; 300,000 tested, 1.1% active;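 active = mean at 75% or more and at least half the replicates too; inconclusive = mean and replicates disagree; tested in HMLE shEcad cells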;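 also: 0% = median of negative and 100% = median of positive control wells; the first replicate is given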
PABP FP inh: blocks human PABP binding to poly(A) RNA | P11940 | inhibition, % at 35 µM | fluorescence polarization | 290,000 tested, 1% active;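 active = 50% or more with normal probe brightness, or confirmed in later tests; inconclusive = above 50% with abnormal brightness, or retests that disagree; inactive = below 50% or failed in later tests; about a fifth of its hits are not listed in these tables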;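 also: calls also rest on retests at 20 µM and on dose response follow-up; controls were probe without protein and protein plus probe with vehicle; some compounds called inactive have numbers as strong as hits; many hits fall short of the cut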
Target sequence (P11940 whole entry, looked up): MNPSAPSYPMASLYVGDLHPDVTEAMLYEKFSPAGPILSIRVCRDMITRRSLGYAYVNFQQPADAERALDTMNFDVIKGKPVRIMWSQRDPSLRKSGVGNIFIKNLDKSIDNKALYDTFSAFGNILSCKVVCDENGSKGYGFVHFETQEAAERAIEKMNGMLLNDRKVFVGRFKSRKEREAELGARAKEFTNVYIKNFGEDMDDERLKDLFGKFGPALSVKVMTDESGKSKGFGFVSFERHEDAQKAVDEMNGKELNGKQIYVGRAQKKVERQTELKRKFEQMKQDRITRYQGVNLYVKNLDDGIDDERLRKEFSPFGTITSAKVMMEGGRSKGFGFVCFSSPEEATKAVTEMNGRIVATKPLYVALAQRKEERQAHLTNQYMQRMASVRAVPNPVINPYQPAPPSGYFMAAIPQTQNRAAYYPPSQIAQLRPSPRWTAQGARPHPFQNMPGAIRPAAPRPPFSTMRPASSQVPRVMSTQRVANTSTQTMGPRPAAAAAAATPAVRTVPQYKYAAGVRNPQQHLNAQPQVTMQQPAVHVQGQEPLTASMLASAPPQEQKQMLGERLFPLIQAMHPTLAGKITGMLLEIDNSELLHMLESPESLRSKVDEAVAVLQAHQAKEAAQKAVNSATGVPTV
MT1-MMP act inh: MT1-MMP (human) activation inhibition; GFP/RFP ratio change, % at 20 µM; HT1080 RFP-PRO-GFP cells, GFP/RFP ratio fluorescence, overnight; percent of plate control window, DMSO zero; 360,000 tested, 0.061% active;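 active = GFP/RFP ratio change of at least 30% with cell ATP level not reduced by more than half and red fluorescence within 50% of control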; also: strong numbers were not always called active
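Assay system – RFP-PRO-GFP reporter HT1080 cells · Compound dosing – single dose of 20 µM compound, 1% DMSO final · Incubation – overnight compound exposure at 37 °C · Measure – GFP/RFP fluorescence ratio · Benchmarks – DMSO wells and RFP-L50D-GFP cells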
Env fusion inh: HIV envelope-mediated fusion inhibition. HeLa-JRFL Env/CEM21 cell fusion, luciferase. inhibition, % at 12.3 µM. 360,000 tested, 1.1% active;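 active = mean replicate inhibition score of at least 50 and every replicate individually at or above 50; inconclusive = only one of the two criteria met; inactive = mean below 50 and not all replicates reaching 50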;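 also: 0% = plate neutral controls and 100% = maraviroc near 300 nM; one replicate is shown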
Rce1 inh: inhibitors of yeast Ras-converting enzyme. Q03530. yeast membranes, quenched prenylated peptide cleavage fluorescence. calls only. 290,000 tested, 0.27% active. AID 2563;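 active = fall in fluorescence gain of 50% or more versus controls, with final raw signal at or below 3038400; inconclusive = same 50% fall but final raw signal above 3038400; inactive = fall in fluorescence gain under 50%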;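 also: plate controls were neutral control wells for no effect and wells lacking membranes for full effect; tested at 10 µM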
Target sequence (Q03530 whole entry, looked up): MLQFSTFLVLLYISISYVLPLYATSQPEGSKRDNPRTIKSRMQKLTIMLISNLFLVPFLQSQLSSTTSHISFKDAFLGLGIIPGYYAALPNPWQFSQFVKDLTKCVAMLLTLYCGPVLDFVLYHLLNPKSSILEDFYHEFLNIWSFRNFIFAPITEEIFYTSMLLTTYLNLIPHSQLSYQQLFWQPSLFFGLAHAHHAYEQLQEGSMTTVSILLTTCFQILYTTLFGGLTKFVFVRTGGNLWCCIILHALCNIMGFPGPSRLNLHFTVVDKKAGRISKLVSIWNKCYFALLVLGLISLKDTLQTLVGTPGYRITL
UUG fidelity: alters start codon recognition fidelity in yeast. S. cerevisiae UUG-firefly luciferase reporter, luminescence/redox ratio. activity score, % at 18.7 µM. 350,000 tested, 0.13% active. AID 602363;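 active = replicate mean at a twofold rise or more, about +100% in these data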;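 also: firefly luciferase made from a UUG start codon reports start codon fidelity; reporter light over untreated wells divided by growth signal over untreated wells; some hits fall short of that in this replicate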
eIF4H inh: inhibitors of RNA binding by human eIF4H; 290,000 tested, 0.94% active; inhibition, % at 35 µM; Q15056; eIF4H fluorescence polarization binding assay;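 active = 50% or more with normal probe brightness, or confirmed in later tests; inconclusive = above 50% with abnormal brightness, or retests that disagree; inactive = below 50% or failed in later tests; about a fifth of its hits are not listed in these tables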;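 also: calls also rest on retests at 20 µM and on dose response follow-up; 0% = protein and probe with vehicle and 100% = probe without protein; strong numbers were not always called active; many hits fall short of the cut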
MT1-MMP act inh RFP: further read-out of MT1-MMP act inh, marked with its call; RFP signal change, %; measured here: RFP expression control read;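 0 = vehicle wells; hits needed this value within 50% of zero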
Starred values were filed as active, the others as inactive; i = inactive; ? = inconclusive; / = no result given; & = joins results of further samples. Some of the compounds tested (hit frequency here may not be typical).

1. O=C(O)C1CC=CCC1C(=O)NCc1ccc2c(c1)OCO2 (configuration not stated)
2. COc1ccccc1C(c1nnnn1CCc1ccccc1)N1CCCCCC1 (configuration not stated)
3. COCC(C)NC(=O)c1cc(-c2ccccc2OC)on1 (configuration not stated)
4. CCOC(=O)CSC1=C(C#N)C(c2ccc(Cl)cc2)CC(=O)N1 (configuration not stated)
5. COc1ccc(Cl)cc1S(=O)(=O)N1CCCC(C(=O)N2CCOCC2)C1 (configuration not stated)
6. CC(C)(C)n1nc2c(c1NC(=O)Cc1ccc([N+](=O)[O-])cc1)CS(=O)(=O)C2
7. COc1cccc(-c2cc(C(=O)N3CCN(C(c4ccccc4)c4ccccc4)CC3)no2)c1
8. Cn1c(=O)cc(OCCCC(=O)NCCC2=CCCCC2)c2ccccc21
screen / no. | 1 | 2 | 3 | 4 | 5 | 6 | 7 | 8
CSC inhib | -4 | 7 | -1 | -14 | -2 | -2 | 54 | -20
PABP FP inh | 4 | -2 | -8 | 7 | 12 | -2 | 2 | 14
MT1-MMP act inh | 1 | -25 | 2 | -2 | -4 | 1 | -15 | 6
MT1-MMP act inh RFP | -1 | -31 | 3 | -6 | -3 | 2 | -8 | 8
Env fusion inh | -7 | -58 | -32 | 1 | -74 | -11 | 42 | 11
Rce1 inh | / | i | i | i | i | i | i | i
UUG fidelity | 6 | -11 | -6 | 4 | -9 | -7 | -9 | /
eIF4H inh | -7 | -6 | 3 | -11 | -2 | 4 | -11 | 6

Record cards, from the list above.
Entry for COc1ccc(Cl)cc1S(=O)(=O)N1CCCC(C(=O)N2CCOCC2)C1 (configuration not stated) : CSC inhib: -2; PABP FP inh: 12; MT1-MMP act inh: -4; MT1-MMP act inh RFP: -3; Env fusion inh: -74; Rce1 inh: i; UUG fidelity: -9; eIF4H inh: -2
Entry for COc1cccc(-c2cc(C(=O)N3CCN(C(c4ccccc4)c4ccccc4)CC3)no2)c1 : CSC inhib: 54; PABP FP inh: 2; MT1-MMP act inh: -15; MT1-MMP act inh RFP: -8; Env fusion inh: 42; Rce1 inh: i; UUG fidelity: -9; eIF4H inh: -11

Screen by screen, as entered above:
Entries 1–8 in PABP FP inh, in turn: 4, -2, -8, 7, 12, -2, 2, 14
Entries 1–8 in MT1-MMP act inh, in turn: 1, -25, 2, -2, -4, 1, -15, 6

More entries follow:
9. Cc1ccn2c(Nc3ccc4c(c3)OCO4)c(-c3ccccn3)nc2c1
10. Cc1ccccc1COc1cccc(/C=N/NC(=O)c2nnn(-c3nonc3N)c2C)c1
11. CNC(=O)/C(=C\c1ccco1)NC(=O)c1ccco1
12. COc1ccc(-c2csc(NC(=O)c3ccccc3NS(=O)(=O)c3ccc(C)cc3)n2)cc1
13. CCNc1nnc(SCC(=O)NC2CCCCCC2)s1
14. C[C@H]1CN([C@@H](C)CO)C(=O)c2cc(NC(=O)Nc3cccc4ccccc34)ccc2O[C@@H]1CN(C)Cc1ccc(-c2ccccc2)cc1
15. CC1=C(C(=O)Nc2ccccn2)C(c2ccc3c(c2)OCO3)C2=C(CC(C)(C)CC2=O)N1 (configuration not stated)
16. COc1ccc(C(=O)C(Cc2cc(C(C)=O)ccc2OC)N2CCCC2)cc1 (configuration not stated)
screen / no. | 9 | 10 | 11 | 12 | 13 | 14 | 15 | 16
CSC inhib | 1 | -1 | 6 | 7 | / | 30 | / | 25
PABP FP inh | 9 | 1 | 11 | 1 | / | / | 0 | 8
MT1-MMP act inh | -1 | 6 | 2 | -17 | 1 | 8 | 0 | -2
MT1-MMP act inh RFP | -12 | -2 | 1 | -38 | 4 | -4 | -2 | 2
Env fusion inh | 3 | -1 | 14 | / | -12 | 6 | -14 | -5
Rce1 inh | i | i | i | i | / | / | i | i
UUG fidelity | -21 | -20 | -8 | / | -2 | -4&-12 | 0 | /
eIF4H inh | ? | -6 | 17 | 8 | / | / | 4 | 2

17. CCOc1ccc(-c2cccc(NC(=O)c3cccs3)c2)nn1
18. O=C(NCCN1CCOCC1)c1cc(-c2ccc(F)cc2)nc2ccccc12
19. Cc1ccc(C(=O)Nc2ccc3c(c2)CCC3)o1
20. CC/C(=N\NC(=O)c1ccc(Br)cc1)c1ccccc1
21. Cc1ccc(S(=O)(=O)N2CCC(C(=O)NCCCN3CCCC3=O)CC2)cc1
22. CCN(CC)S(=O)(=O)c1ccc2c(c1)nc(SCn1nnc3ccccc3c1=O)n2CC
23. COc1ccc(CC(=O)OCC(=O)Nc2ccc(Cl)cn2)cc1
24. CC1(C)Cc2c(cnn2-c2cccc(F)c2)C(NC(=O)c2csnn2)C1 (configuration not stated)
screen / no. | 17 | 18 | 19 | 20 | 21 | 22 | 23 | 24
CSC inhib | / | / | 11 | -11 | 6 | -10 | -5 | -5
PABP FP inh | / | / | -9 | -8 | / | -6 | 3 | 0
MT1-MMP act inh | 0 | -1 | -4 | 4 | 0 | -3 | 1 | -1
MT1-MMP act inh RFP | -4 | 1 | 1 | 5 | 1 | 1 | 3 | -1
Env fusion inh | -10 | -15 | -108 | -16 | 24 | 13 | / | 35
Rce1 inh | i | i | i | i | / | i | i | i
UUG fidelity | -12 | / | -14 | / | -1 | 2 | -4 | -8
eIF4H inh | / | / | 0 | 0 | / | -9 | -10 | 11

25. COc1ccc(OC)c(S(=O)(=O)NCc2cccnc2)c1
26. Cc1ccc(-c2cc(C(=O)Nc3nn[nH]n3)c3ccccc3n2)c(C)c1
27. CCN(CC)CCNC(=O)c1cccc(NC(=O)C(=O)c2ccccc2NC(C)=O)c1
28. Cc1cc(C(=O)OCC(=O)N(C)C2CCS(=O)(=O)C2)c(C)n1-c1ccccc1 (configuration not stated)
29. O=C(Nc1ccc2c(c1)OCO2)c1cc(C2CCCCN2C(=O)c2ccc(Cl)cc2)on1 (configuration not stated)
30. CC(C)NC(=O)/C(C#N)=C/c1cccc(NC(=O)c2ccccc2Cl)c1
31. O=C(CCN1CCN(c2ccccc2)CC1)NNC(=S)Nc1ccccc1
32. C(=N\Nc1ccc2nncn2n1)/c1ccco1
screen / no. | 25 | 26 | 27 | 28 | 29 | 30 | 31 | 32
CSC inhib | -9 | -6 | 4 | -23 | / | 3 | -3 | -13
PABP FP inh | 7 | 2 | -6 | -10 | / | -1 | 6 | 1
MT1-MMP act inh | 2 | -1 | 4 | 8 | -3 | -6 | -5 | 1
MT1-MMP act inh RFP | 3 | 2 | 8 | 1 | 2 | -16 | -3 | 2
Env fusion inh | / | -48 | 18 | / | 10 | / | 16 | 4
Rce1 inh | i | i | / | i | / | i | i | i
UUG fidelity | -18 | -10 | -50 | 6 | -17 | / | / | /
eIF4H inh | 11 | -12 | 2 | 10 | / | -2 | 24 | 6

33. Cc1ccccc1Nc1nc(N2CCOCC2)nc(N2CCOCC2)n1
34. CC(C)C[C@@H](CN1CCC[C@@H]1CN1C(=S)NC[C@@H]1Cc1ccccc1)N1C[C@H](Cc2ccc(O)cc2)N(CC2CCCCCC2)C1=S
35. O=C(CSc1nnc(SCc2ccc(Cl)cc2)s1)N1CCN(C(=O)c2ccco2)CC1
36. CC1C(O)=C(c2nc3ccccc3[nH]2)C(=N)N1c1ccccc1 (configuration not stated)
37. O=C1C(C=NCCCN2CCOCC2)=C(O)c2ccccc21
38. Cc1ccccc1-c1ccc(CN2C(C)C(=O)N(Cc3cn(Cc4ccco4)nn3)CCS2(=O)=O)cc1 (configuration not stated)
39. C#CCNC(=O)C1=C[C@H](c2ccc3c(c2)OCO3)C[C@H](OCCCCO)O1
40. Cc1ccc(NC(=O)CN(C)C(=O)/C=C/c2ccc3c(c2)OCO3)cc1
screen / no. | 33 | 34 | 35 | 36 | 37 | 38 | 39 | 40
CSC inhib | -11 | / | -9 | -3 | 0 | / | -4 | /
PABP FP inh | 11 | / | 0 | -6 | -8 | / | / | /
MT1-MMP act inh | -1 | 0 | 1 | 5 | -3 | 0 | / | -2
MT1-MMP act inh RFP | 1 | -2 | 0 | 2 | 4 | -10 | / | 3
Env fusion inh | 0 | ? | 26 | -78 | / | 10 | -16 | 23
Rce1 inh | i | / | / | i | i | / | i | /
UUG fidelity | 7 | -4 | -8 | -16 | 13 | -1 | / | -5
eIF4H inh | 0 | / | -10 | 4 | 3 | / | / | /

41. Cc1ccc(S(=O)(=O)N2CC3(O)CN(C(=O)OC(C)C)N(C(=O)OC(C)C)CC3(OC(=O)Nc3c(C)noc3C)C2)cc1 (configuration not stated)
42. Cc1cc(C)nc(SCC(=O)N2CCOCC2)n1
43. COc1cccc(Cn2cnc3c([N+](=O)[O-])c(C)c(C)cc32)c1
44. CCC(C)(C)NC(=O)C(c1cccc(OC)c1OC)N(C(=O)CCC(=O)Nc1cc(C)on1)C(C)C (configuration not stated)
45. COC(=O)C1=C[C@@H](C(=O)OC)C2C3=C(C(=O)C24CCCCC4)[C@H](C)n2c(=O)n(C)c(=O)n2[C@@H]3C1 (some centres not stated)
46. COc1ccc2nc(SCC(=O)c3ccco3)[nH]c2c1
47. CCN1C(=O)[C@H]2[C@@H](c3ccc(-c4ccc(C(C)=O)cc4)c(OC)c3)N[C@@](Cc3ccccc3)(C(=O)OC)[C@H]2C1=O
48. C/C(=N/NC(=O)c1sc(=S)n(C)c1C)c1ccccc1
screen / no. | 41 | 42 | 43 | 44 | 45 | 46 | 47 | 48
CSC inhib | / | -1 | -2 | -24 | -2 | 1 | 2 | -6
PABP FP inh | / | -1 | 4 | 2 | / | 13 | / | -3
MT1-MMP act inh | 6 | 2 | -3 | 0 | 1 | 3 | -8 | -3
MT1-MMP act inh RFP | 2 | 2 | -6 | 0 | 3 | 3 | -6 | 2
Env fusion inh | -33 | -26 | 6 | 9 | 29 | / | -148 | 2
Rce1 inh | / | i | i | i | i | i | i | i
UUG fidelity | -19 | -16 | / | 5 | 11 | -18 | -1 | /
eIF4H inh | / | 7 | -12 | -5 | / | 3 | / | 1

49. Oc1c(Br)cc(CNC2CCCCC2)cc1Br
50. COc1ccc(-n2cc(C#N)c(=O)[nH]c2=O)cc1
51. O=C(CSc1nc(O)c(C2CCCCC2)c(=O)[nH]1)Nc1ccc(Cl)cc1
52. Cc1ccnc(NC(=O)CNC(=O)c2ccc3ccccc3c2)c1
53. Cn1c(NC(=O)c2cc(-c3ccc4c(c3)OCO4)nc3ccccc23)cc(=O)n(C)c1=O
54. COc1ccc(O)c(-c2cn[nH]c2-c2cccs2)c1
55. Cc1ccc(Nc2c(O)nc[nH]c2=O)cc1C
56. O=C(Nc1ccc2c(c1)OCCO2)C1CCCN(S(=O)(=O)c2cccnc2)C1 (configuration not stated)
57. Cc1ccc(C(=O)NCCC(=O)N2CCC3(CC2)NCCc2[nH]cnc23)cc1C
58. Cc1oc(-c2ccccc2F)nc1CS(=O)CC(=O)NCc1ccc2c(c1)OCO2 (configuration not stated)
59. Cn1cnnc1SCCCN1C(=O)c2cccc3cccc(c23)C1=O
screen / no. | 49 | 50 | 51 | 52 | 53 | 54 | 55 | 56 | 57 | 58 | 59
CSC inhib | / | -7 | 19 | -8 | 5 | -13 | / | 3 | -3 | 3 | -1
PABP FP inh | / | 0 | -1 | / | -8 | -5 | / | 0 | -2 | -7 | 1
MT1-MMP act inh | 0 | 2 | 2 | -3 | -5 | -5 | 1 | -1 | 1 | 0 | -5
MT1-MMP act inh RFP | 1 | -1 | -2 | 3 | -1 | -6 | 4 | -2 | 3 | 4 | 2
Env fusion inh | -8 | -24 | / | -16 | / | 8 | -6 | 0 | -7 | -1 | -7
Rce1 inh | / | i | i | i | i | / | / | i | i | i | i
UUG fidelity | -27 | -12 | / | / | -18 | -14 | -5 | 8 | -19 | -11 | /
eIF4H inh | / | 5 | -3 | / | -9 | -4 | / | -20 | -1 | -6 | -8

Screens: PubChem, several laboratories
